Screens as filed in PubChem.
MLL AF4-AF9 inh: inhibitors of human MLL-AF4/AF9 interaction | P42568 | AlphaScreen, biotin-AF4 peptide binding to FLAG-AF9 | inhibition, % at 10 µM | 350,000 tested, 0.47% active | AID 651704;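 active = every replicate reaching a set inhibition limit, whatever the replicate mean, cut at about 25% in these data; inconclusive = mean inhibition reaches that limit but some replicates miss it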;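 note: 0% = plate neutral control median and 100% = total signal loss; the record names both 10 and 1 µM as test concentration; the first replicate is given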
HNF4A DNA FP: change in binding of human HNF4 alpha to DNA; P41235; 360,000 tested, 0.3% active; HNF4a-FITC DNA binding, fluorescence polarization, 1 h; activity change, % at 10 µM; in the data active = activity change above about 30%, passing the limit was not always enough;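 note: controls were the assay level and a saturating level of protein; the project sought stronger binding though the title names inhibitors; some compounds called inactive have numbers as strong as hits; positive values seem to mean higher polarization but the record does not say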
Target sequence (P41235 whole entry, looked up): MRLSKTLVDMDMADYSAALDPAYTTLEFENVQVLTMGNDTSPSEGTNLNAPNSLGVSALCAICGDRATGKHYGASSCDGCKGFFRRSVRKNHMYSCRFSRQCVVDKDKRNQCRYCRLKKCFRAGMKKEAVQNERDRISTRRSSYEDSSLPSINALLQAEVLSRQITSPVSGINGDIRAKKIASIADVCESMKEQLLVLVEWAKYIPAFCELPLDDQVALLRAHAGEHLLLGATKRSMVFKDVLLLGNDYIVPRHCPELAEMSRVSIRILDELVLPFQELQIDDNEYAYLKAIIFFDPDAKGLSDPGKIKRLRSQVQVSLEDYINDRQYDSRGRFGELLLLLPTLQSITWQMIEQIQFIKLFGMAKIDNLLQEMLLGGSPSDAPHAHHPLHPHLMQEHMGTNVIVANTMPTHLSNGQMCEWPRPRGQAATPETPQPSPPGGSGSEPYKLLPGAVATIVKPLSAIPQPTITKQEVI
UCH37 DUB inh: human UCH37 deubiquitinating enzyme inhibition | Q9Y5K5 | purified proteasome/UCH37, Ub-AMC cleavage fluorescence | inhibition, % (concentration not given with the values) | 330,000 tested, 0.33% active | AID 588478;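 active = mean of two replicates above 20%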;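 note: 0% = compound-free wells with enzyme and 100% = wells lacking proteasome; stock transfer was 100 nL into about 20 µL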
Target sequence (Q9Y5K5 whole entry, looked up): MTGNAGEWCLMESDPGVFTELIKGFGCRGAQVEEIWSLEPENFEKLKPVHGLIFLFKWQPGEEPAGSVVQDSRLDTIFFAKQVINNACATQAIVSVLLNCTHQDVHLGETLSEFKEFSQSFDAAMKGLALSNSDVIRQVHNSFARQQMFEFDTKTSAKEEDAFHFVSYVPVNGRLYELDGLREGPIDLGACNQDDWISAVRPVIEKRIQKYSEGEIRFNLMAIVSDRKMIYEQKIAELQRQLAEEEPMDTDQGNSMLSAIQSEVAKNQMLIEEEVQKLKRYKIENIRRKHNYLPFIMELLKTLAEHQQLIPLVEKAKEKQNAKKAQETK
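Schedule: 30 min plus 25 min, room temperature / Material: human UCH37 within purified proteasomes / Technique: AMC fluorescence intensity at 355/460 nm / Buffer or medium: pH 7.4 Tris-HCl (50 mM) with ovalbumin, ATP-MgCl2, DTT / Controls: wells without proteasome as full block, compound-free enzyme plus substrate as uninhibited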
Ecoli growth: E. coli growth inhibition. AID 1053175. Escherichia coli growth, OD600, 23 h; hits give low values. OD600 absorbance (test concentration not listed). 330,000 tested, 0.21% active;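 active = OD600 absorbance below the run mean of sample wells minus 3.6 SD, in any replicate, cut at about 0.56 in these data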;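 note: stock transfer was 300 nL into about 60 µL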
RanGTP-Impb inh: disruptors of Ran-importin-beta complex formation – biochemical, FRET, CFP-Ran, YFP-importin-beta, homogeneous, primary screen; cell-free CFP-Ran/YFP-importin-beta FRET ratio; 300,000 tested, 1.1% active; inhibition, % (concentration not given with the values);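 active = most replicates above 15%; inconclusive = exactly half above 15%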;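 note: 0% = DMSO wells and 100% = Ran loaded with GDP instead of GTP; wells of about 40 µL received 100 nL stock; the first replicate is given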
FGF22 binding: shifts melting point of recombinant human FGF22; recombinant FGF22 thermal shift, SYPRO orange fluorescence; percent of sucrose octasulfate shift, DMSO zero; calls only at 9.99 µM; 340,000 tested, 1.5% active;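 active = melting point raised past a set limit in the mean and every replicate; inconclusive = no clear call; three in four hits are not shown here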
Target sequence (Q9HCT0 whole entry, looked up): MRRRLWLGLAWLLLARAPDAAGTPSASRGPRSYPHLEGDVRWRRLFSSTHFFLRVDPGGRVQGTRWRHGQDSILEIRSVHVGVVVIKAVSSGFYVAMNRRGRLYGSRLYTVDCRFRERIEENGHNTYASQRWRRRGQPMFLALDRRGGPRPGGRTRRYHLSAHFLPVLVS
Vif A3G: inhibitors of Vif binding to APOBEC3G peptide, primary screen, biochemical, TR-FRET, GST-Vif 1-94, biotin-A3G peptide, dose response retest (AID 1117319) | 260,000 tested, 0.57% active | TR-FRET GST-Vif / biotin-A3G peptide binding; higher % means a stronger effect; test concentration not given here; strong numbers were not always called active | inhibition, %; hits with a dose series show IC50 in µM;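 active = above the screen mean plus three standard deviations and confirmed in dose response; inconclusive = results disagree or hit not tested in dose response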;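 note: Vif residues 1-94 fused to GST binding biotinylated APOBEC3G peptide 110-148; 0% = full assay without inhibitor and 100% = GST in place of GST-Vif; retest series ran down from 100 µM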
* hit, by the source's call; i = inactive; ? = inconclusive; . = not tested or not shown; & = joins results of further samples. These rows are one share of the data; the hit share may differ from the screen's.

molecule	HNF4A DNA FP	Ecoli growth	RanGTP-Impb inh	FGF22 binding	Vif A3G	MLL AF4-AF9 inh	UCH37 DUB inh
O=C1C2C3c4ccccc4C(c4ccccc43)C2C(=O)N1CN1CCOCC1 (stereo not given)	1.5	0.68	0.8	i	3%	2.1	0.9
Cn1nc(NC(=O)C(C)(C)C)c2c(F)cccc21	1.9	0.68	?	i	-11%	-1.3	3.9
CN(C)CCCN1C(=O)C(O)=C(C(=O)c2cccs2)C1c1cccc([N+](=O)[O-])c1 (stereo not given)	.	0.7	-0.4	.	-8%	.	3.7
CCc1ccc2nc(N(CCCN(C)C)C(=O)c3ccc4c(c3)OCCO4)sc2c1	1.7	0.72	?	i	.	15	2.4
COc1ccc(C(=O)CC(=O)c2ccccc2)cc1	3.7	0.66	2.8	i	.	-13	0.2
CCOc1cc(OCC)cc(C(=O)Nc2cccc(C(C)=O)c2)c1	-3.8	0.66	-0.6	.	-6%	.	1.3
CCCn1c(-c2cccs2)nc2ccccc21	2.0	0.7	11	.	-7%	.	-48
CC1(C(=O)NCc2cccc3ccccc23)CCN1CCc1ccccc1 (stereo not given)	2.4	.	.	i	.	4.5	.
O=C(COC(=O)C1CCCCC1)Nc1cc([N+](=O)[O-])ccc1F	0.4	0.69	2.3	i	.	0.6	5.3
O=C(c1ccco1)N1CCN(Cc2cc(=O)c(OCc3ccccc3)co2)CC1	1.4	0.65	2.5	i	11%	-1.3	0.3
O=C(c1ccccn1)c1cc2ccccc2n1S(=O)(=O)c1ccccc1	-2.1	.	?	.	-3%	.	0.5
CC(C(=O)NCCN1CCOCC1)(c1ccccc1)c1ccccc1	-1.0	0.69	4.2	i	3%	-5.8	-0.4
O=[N+]([O-])c1cccc(/C=N/n2cnnc2)c1	0.0	.	-1.4	i	-4%	.	.
CCCC(C(=O)NC1CCCC1)N(Cc1ccccc1Cl)C(=O)c1snc(C(N)=O)c1N (stereo not given)	-0.7	0.64	1.1	i	.	2.9	-34
Cc1ccc(S(=O)(=O)N(C)C)cc1NC(=O)COc1cccc(-n2cnnn2)c1	0.7	0.71	.	i	.	5.8	1.1
Clc1ccc(-c2nc3ccc(Cl)cn3c2Cc2cccc(Cl)c2)cc1	5.8	.	.	i	.	1.2	.
CC1=C(C(=O)N2CCCCCC2)CC(CC(=O)NC2CCCC2)C(=O)N1Cc1ccccc1 (stereo not given)	-0.2	.	.	i	.	0.2	.
COc1ccc(/C=C/C(=O)c2cc(F)ccc2OC(=O)c2ccccc2OC)cc1OC	0.3	0.68	2.6	i	?	13	1.5
O=C(COC(=O)c1cnc(Cl)c(Cl)c1)Nc1cccc(S(=O)(=O)N2CCOCC2)c1	1.0	0.66	.	i	-9%	-0.4	4.7
OCCC1CN(Cc2ccccc2-c2ccco2)CCN1Cc1ccsc1 (stereo not given)	-0.2	0.68	9.0	i	3%	12	6.6
COCCn1c(SCC(=O)NC2CCCCC2)nnc1-c1ccncc1	2.7	0.62	2.9	i	.	-2.4	2.0
CC(=O)N1CCCc2cc(S(=O)(=O)N3CCN(C4CCCCC4)CC3)ccc21	0.9	0.74	2.2	.	5%	.	1.5
COc1ccccc1Nc1cc(C)nc2c(C)ccc([N+](=O)[O-])c12	-3.7	0.66	-1.5	i	7%	13	5.3
COc1cccc(C2c3cc4c(cc3OC(NNC(N)=O)C2C)OCO4)c1O (stereo not given)	-0.7	.	.	i	-7%	5.5	.
CCOC(=O)N1CCN(Cc2ccc(O)c3ncccc23)CC1	.	0.75	3.0	i	.	19	2.0
CC(C)c1cc(C(=O)Nc2ccc3c(c2)OCO3)no1	0.8	0.69	-1.6	i	5%	4.7	4.9
O=S(=O)(N/N=C/c1ccc(N2CCOCC2)cc1)c1ccc(Br)cc1	3.2	.	3.8	i	.	1.4	.
C=CCSC(CC)(CC)C(N)=O	-0.2	.	1.1	i	-7%	8.1	.
CC(C)COc1ccc(C(=O)Nc2ncn[nH]2)cc1	0.5	0.65	5.5	i	.	-3.5	-1.0
CCOC(=O)Cc1csc(NC(=O)c2cc(C)cc(C)c2)n1	1.4	0.64	1.3	i	6%	1.8	2.2
COc1cc(CN2CCNC(=O)C2CC(=O)N(C)Cc2ncc[nH]2)cc(OC)c1 (stereo not given)	-3.8	0.74	-1.2	i	-6%	-6.6	0.6
O=C(CN1CCN(c2cccc(Cl)c2)CC1)Nc1nccs1	1.4	0.63	-2.6	i	-5%	-1.8	2.0
CNC(=O)OCc1cocc1COC(=O)NC	0.4	.	.	i	.	-9.0	.
Cc1ccc(C(=O)N/N=C\c2cccc(OC(=O)c3cccc(F)c3)c2)cn1	3.5	.	1.8	i	.	0.3	.
CCCCn1nnnc1C1(C)CCC(=O)N1Cc1ccc(OC)c(OC)c1 (stereo not given)	0.5	.	.	i	.	-1.3	.
Cc1cc(NC(=O)C2CCCCC2C(=O)O)no1 (stereo not given)	2.2	0.71	-2.8	.	19%	.	0.8
CC(=O)N1c2ccc(S(=O)(=O)N3CCC(C(=O)Nc4cccc(Cl)c4)CC3)cc2CC1C (stereo not given)	-0.1	0.72	25*	i	.	-2.3	5.6
CCN(CC)CCNC(=O)c1ccc(NC(=O)c2ccc(F)cc2)cc1	-5.8	0.66	-3.5	i	6%	0.3	2.3
COc1ccc(CCn2c(=O)[nH]c3cc(C(=O)N4CCN(c5ccccn5)CC4)ccc3c2=O)cc1OC	3.2	0.74	1.0	i	0%	1.5	1.8
Cc1ccc2c(c1)/C(=N/N1C(=O)c3ccccc3C1=O)C(=O)N2	2.3	.	13	.	22%	.	.
COc1cc2ccccc2cc1C(=O)N1CCN(c2ccccn2)CC1	0.3	0.7	0.7	i	.	3.9	2.4
COc1ccc(-c2cc(C(F)(F)F)nc(S(C)(=O)=O)n2)cc1OC	-0.7	0.66	-0.2	.	-2%	.	-118
COc1ccc(-c2cc(C(=O)OC(C)C(=O)Nc3c(C)n(C)n(-c4ccccc4)c3=O)c3ccccc3n2)cc1 (stereo not given)	-1.0	0.7	-0.4	.	10%	.	-50
O=NN(Cc1cccnc1)C(=O)NC1CCCCC1	2.6	.	.	i	.	-3.7	.
COc1cc(OC)cc(-c2c(-c3cccs3)c3cc(-c4ccc(SC)cc4)ccc3n2C)c1	12	0.87	.	i	.	-3.2	2.5
CC(C)C[C@H]1CN([C@@H](Cc2ccccc2)CN2CCC[C@H]2CN2C(=O)C(=O)NC[C@@H]2Cc2ccc(O)cc2)C(=O)C(=O)N1CC1CCCCC1	3.7	.	.	i	.	2.9	.
Cc1cc(Cl)c(S(=O)(=O)Nc2ccc(Cl)cn2)cc1OCC(N)=O	0.0	0.74	4.1	.	?	.	3.0
CCc1ccc(C(=O)/C=C/Nc2ccc(S(=O)(=O)Nc3cnc4ccccc4n3)cc2)cc1	12&15	0.71&0.67	3.6	i	-9%&-5%	-0.5&0.0	-39&-53
COc1nc(Nc2nc3ccccc3c(=O)[nH]2)nc2ccc(C)cc12	275*	0.69	-2.0	i	-2%	-5.3	5.5
CC1CC(C)(C)N(C(=O)CN2C(=O)CCC2=O)c2ccccc21 (stereo not given)	3.4	0.66	-1.1	i	.	5.9	1.7
COCc1cccc(-c2csc(C(C)(O)c3ccccc3)n2)c1 (stereo not given)	-3.7	.	.	i	.	-3.2	.
CC1CN(C(=O)c2ccccc2Sc2ccccc2C#N)CC(C)O1 (stereo not given)	1.5	0.67	3.4	.	3%	.	3.8
O=c1[nH]c(/C=C\c2cccs2)nc(O)c1[N+](=O)[O-]	-1.9	0.67	?	i	-5%	-1.2	21*
CCOC(=O)C1CCN(c2c(Nc3cc(C)cc(C)c3)c(=O)c2=O)CC1	4.5	0.72	?	i	-4%	-29	8.4
COc1cc(O)c(C(CCN2CCOCC2)c2ccc(N(C)C)cc2)c(OC)c1 (stereo not given)	-0.1	0.63	-0.2	i	10%	12	5.5
CC(/C=N/NC(=O)c1cc(-c2ccc3ccccc3c2)n[nH]1)=C\c1ccco1	7.2	.	-11	i	12%	1.1	.
CCc1cc2c3c(c(=O)oc2cc1OC)CCCC3	-2.6	0.75	7.5	.	-16%	.	-45
COc1ccc(CN(C)Cc2nc(Cc3ccccc3Cl)no2)cc1OC	1.4	0.67	6.5	i	.	-7.0	3.5
Cc1cc(C)c(C#N)c(SCC(=O)N2CCN(Cc3ccccc3)CC2)n1	0.2	0.68	26	.	3%	.	0.7
COc1ccc(CN2CCN(C(=O)c3ccc4nc(N5CCOCC5)sc4c3)CC2)c(OC)c1OC	-1.1	0.71	3.0	i	11%	2.0	-0.1

3 entries from above, with values under each structure:
Screens in order – HNF4A DNA FP, Ecoli growth, RanGTP-Impb inh, FGF22 binding, Vif A3G, MLL AF4-AF9 inh, UCH37 DUB inh
- CCc1cc2c3c(c(=O)oc2cc1OC)CCCC3
    -2.6, 0.75, 7.5, ., -16%, ., -45
- COc1ccc(CN(C)Cc2nc(Cc3ccccc3Cl)no2)cc1OC
    1.4, 0.67, 6.5, i, ., -7.0, 3.5
- Cc1cc(C)c(C#N)c(SCC(=O)N2CCN(Cc3ccccc3)CC2)n1
    0.2, 0.68, 26, ., 3%, ., 0.7

(more compounds)
molecule	HNF4A DNA FP	Ecoli growth	RanGTP-Impb inh	FGF22 binding	Vif A3G	MLL AF4-AF9 inh	UCH37 DUB inh
COc1cc(F)ccc1-c1csc(C(NC(C)=O)c2cccc(F)c2)n1 (stereo not given)	1.7	.	.	i	.	-1.1	.
CC(=O)Nc1cccc(-c2cc(NC=O)c3ncc(-c4cccc(C(C)=O)c4)n3c2)c1	2.5	.	.	i	.	1.9	.
COc1ccc(N2CCN(c3ccc(C(N)=O)cc3[N+](=O)[O-])CC2)cc1	-2.6	0.61	-2.6	i	-4%	5.7	0.4
CC12C=CC(=O)C=C1CCC1C3CCC(O)(C(=O)CO)C3(C)CC(O)C12F (stereo not given)	-1.6	.	.	i	-6%	-1.4	.
CCOc1ccc(NC(=O)[C@H](Cc2ccccc2)NC(=O)C2CCNCC2)cc1	3.4	0.65	1.1	i	2%	-0.2	-1.7
COc1ccc(-c2cnc(C(O)c3ccc(C(C)(C)C)cc3)[nH]2)cc1 (stereo not given)	0.8	.	.	i	.	2.5	.
O=C(CCCSc1nc2ccccc2[nH]1)NCc1ccc(Cl)cc1	1.3	0.66	1.4	i	.	-0.3	5.4
COc1ccc(CN(C)C(=O)COC(=O)c2ccc(-c3ccccc3)cc2)c(OC)c1OC	-1.3	0.72	.	i	-5%	-1.7	5.5
O=C(CSc1nnc(-c2ccc(O)cc2)o1)NNC(=O)c1ccncc1	2.0	0.65	4.9	i	-6%	3.0	3.2
Cc1cc2ncc(C(=O)Nc3ccccc3)c(C)n2n1	-0.1	0.69	?	.	19%	.	-26
COCCCNC(=O)c1c(N)n(/N=C/c2cccs2)c2nc3ccccc3nc12	4.6	.	11	.	16%	.	.
CN(C)c1ccc(C2(O)C(=O)c3ccccc3C2=O)cc1	-1.7	0.69	3.0	i	?	1.1	0.1
CC(C)(C)N(Cc1ccccc1)C(=O)COC(=O)C1CCN(c2ccc(C(F)(F)F)cn2)CC1	-1.2	0.73	.	i	-1%	-2.2	1.1
Cc1ccc(-n2nc3c(SCCN4CCOCC4)nnc(C)c3c2C)cc1	1.3	0.62	-2.3	.	-17%	.	5.1
